Source: PubChem
2A StopGo = lowers the luciferase signal of an FMDV 2A StopGo reporter; human cells with a luciferase reporter of 2A StopGo recoding; control for the full effect not named in the record; Potency, µM (series often up to 57.9 µM), without a hit: at the top dose signal change, negative = less light; 410,000 compounds, 1.2% hits; AID 1159524; active = well fitted falling curve with a large enough effect; inconclusive = small, poorly fitted or top-dose-only effect; inactive = no such curve, though single readings can be large or run the other way; tested in HEK293T cells; further: on the % scale 0 is the no-effect control and ±100 the full control effect; nearly all actives have a fitted effect of over 45% in size; luciferase light after 4 h
SARS PLpro yeast = blocks SARS-CoV papain-like protease in a yeast assay; S. cerevisiae expressing SARS-CoV PLpro, growth rescue; control for the full effect not named in the record; Potency, µM (highest dose often 32.9 µM), for inactives: at the highest dose activity, positive = growth rescue; 330,000 compounds, 0.19% hits; AID 485353; active means well fitted rising curve with a large enough effect; inconclusive means small, poorly fitted or top-dose-only effect; inactive means no such curve, though single readings can be large or run the other way; further: 0% is about no effect; nearly all actives have a fitted effect of over 55% in size; growth read by luminescence after 48 h
Cruzain inh noDet = inhibitors of Trypanosoma cruzi cruzain without detergent | P25779 | purified cruzain, Z-FR-AMC fluorescence, no detergent | AID 1476 | 200,000 compounds, 2.3% hits | Potency, µM, for the others: max response, negative = inhibition, usual class: inhibitors;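 further: plate controls were enzyme without inhibitor for no effect and buffer without enzyme for full effect; nearly all actives have a fitted effect of over 40% in size; top concentration of the series not given in the record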
Target sequence (P25779 123-467 limits assumed): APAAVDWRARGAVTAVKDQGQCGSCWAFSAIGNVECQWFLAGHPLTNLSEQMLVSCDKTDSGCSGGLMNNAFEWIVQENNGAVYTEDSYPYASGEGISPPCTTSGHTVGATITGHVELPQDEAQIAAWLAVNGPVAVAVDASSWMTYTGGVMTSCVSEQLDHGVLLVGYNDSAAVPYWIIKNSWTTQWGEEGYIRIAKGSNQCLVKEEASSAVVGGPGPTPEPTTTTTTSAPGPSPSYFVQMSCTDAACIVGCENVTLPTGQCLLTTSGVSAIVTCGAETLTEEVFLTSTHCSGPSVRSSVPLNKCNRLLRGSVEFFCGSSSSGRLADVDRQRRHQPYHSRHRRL
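Detergent-free condition (0.00005% Triton X-100) in acetate buffer pH 5.5 with DTT. 1.5 nM enzyme and compound were pre-mixed 15 min, then 2 uM Z-FR-AMC substrate added; reaction progress from fluorescence change between first and third reads (60 s).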
Cruzain Triton = cruzain (T. cruzi) inhibition with detergent; purified cruzain, Z-FR-AMC fluorescence, 0.01% Triton; P25779; Potency, µM, for the others: max response, negative = inhibition, hits mostly inhibitors; 200,000 compounds, 0.43% hits; AID 1478;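 further: plate controls were neutral wells for no effect and buffer without enzyme for full effect; nearly all actives have a fitted effect of over 40% in size; top concentration of the series not given in the record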
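Read-out: AMC fluorescence (360 nm excitation, 450 nm emission), four reads over 2 min, first-to-third difference used. Conditions: cruzain 1.5 nM, Z-FR-AMC 2 uM, pH 5.5 acetate, 5 mM DTT, 0.01% Triton X-100.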
NS1 inh = influenza NS1 inhibition | 270,000 compounds, 0.4% hits | S. cerevisiae slowed by influenza A NS1, growth recovery by OD600 | Potency, µM (top dose mostly 46.1 µM), inactives show at the top dose activity, positive = more growth; active means well fitted rising curve with a large enough effect; inconclusive means small, poorly fitted or top-dose-only effect; inactive means no such curve, though single readings can be large or run the other way; further: nearly all actives have a fitted effect of over 50% in size
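In this qHTS, NS1 from influenza A is expressed in budding yeast, where it slows growth. Cells are switched from glucose to 2% galactose medium (pH 6.0, -URA), treated with compound, and growth recovery is read at OD600.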
RE007 growth inh = less growth of the S. pombe RE007 Vpr strain. S. pombe RE007 Vpr strain, BacTiter-Glo ATP luminescence, 24 h; control for the full effect not named in the record. Potency, µM (highest dose often 92.2 µM), for inactives: at the top dose activity change, negative = less growth. 360,000 compounds, 0.21% hits. AID 651644; active = well fitted falling curve with a large enough effect; inconclusive = small, poorly fitted or top-dose-only effect; inactive = no such curve, though single readings can be large or run the other way;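 further: on the % scale 0 is the no-effect control and ±100 the full control effect; nearly all actives have a fitted effect of over 50% in size; the assay follows cell death caused by Vpr and the record does not say whether a fall means rescue or toxicity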
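Fission yeast RE007 carrying one integrated HIV-1 vpr copy, seeded at OD 0.01 in PMG+AL medium with 23 nL pinned compound. Grown 24 h at 30 degrees; viability read by BacTiter-Glo luminescence after 5 min.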
LASV entry inh = inhibitors of Lassa virus binding or cell entry; 300,000 compounds, 1.2% hits; Potency, µM (titrated, usually from 37.9 µM), for the others: at the highest dose activity change, negative = inhibition, actives largely listed as inhibitors; AID 540256; Lassa virus pseudotype entry inhibition, cell reporter; control for the full effect not named in the record; active means well fitted inhibition curve with a large enough effect; inconclusive means small, poorly fitted or top-dose-only effect, or effect the other way; inactive means flat fitted curve, though single readings scatter; tested in HEK293 cells; further: on the % scale 0 is the no-effect control and ±100 the full control effect; nearly all actives have a fitted effect of over 50% in size; luciferase read-out
MARV entry inh = inhibitors of Marburg virus binding or cell entry. Marburg virus pseudotyped entry inhibition, cell reporter; control for the full effect not named in the record; about a third of the inactives were read at about 46 µM. Potency, µM (titrated, usually from 37.8 µM), inactives show at the highest dose activity change, negative = inhibition, most hits filed as inhibitors. 300,000 compounds, 1.8% hits. AID 540276; active = well fitted inhibition curve with a large enough effect; inconclusive = small, poorly fitted or top-dose-only effect, or effect the other way; inactive = flat fitted curve, though single readings scatter; tested in HEK293 cells; about a fifth of its hits are not listed in these tables; further: on the % scale 0 is the no-effect control and ±100 the full control effect; luciferase read-out
* marks the source's active call; other numbers are inactive results; u = inconclusive; x = not tested or not shown; [ ] = remark or other dose. Unless noted, the call rests on the fitted dose curve; in most records, active means well fitted curve in the direction sought with a large enough effect; inconclusive means small, poorly fitted or top-dose-only effect, or another doubt; inactive means no such curve, though single readings can be large; an effect the other way counts as inactive or inconclusive. Potency means the concentration at half of the fitted maximal effect.

mol	2A StopGo	SARS PLpro yeast	Cruzain inh noDet	Cruzain Triton	NS1 inh	RE007 growth inh	LASV entry inh	MARV entry inh
O=C(Nc1ccccc1)Nc1ccc(Cl)c([N+](=O)[O-])c1	-5.1%	-95.8%	-14.8%	-10.8%	-70.6%	18.5%	u	u
Cc1cccc(C)c1OCc1cc(C(=O)N(Cc2nccn2C)C(C)C)no1	-21.7%	0.4%	x	x	-12.7%	-6.1%	u	0.8%
COc1ccc(S(=O)(=O)NCC(c2ccco2)N2CCc3ccccc3C2)cc1 (stereo not given)	29.2%	-2.2%	x	x	x	-0.7%	8.4%	-5.3%
O=C(COC(=O)/C=C/c1ccc(S(=O)(=O)N2CCCCCC2)cc1)NCc1ccccc1Cl	3.4%	-19.7%	10.5%	-3.1%	5.2%	2.1%	u	6.3%
N#Cc1ccccc1OCC(=O)OCC(=O)N1CCCC1	-5.6%	-16.4%	x	x	x	6.6%	-5.8%[46.1 µM]	-3.4%[46.1 µM]
CC(C)=C1SC(N2CCN(c3cccc(C)c3)CC2)=NC1=O	x	-5.6%	1.4%	-0.8%	-3.4%	13.0%	1.7%	-18.4%
Nc1nc(NCCCN2CCOCC2)nc(Nc2ccc(Cl)cc2)c1[N+](=O)[O-]	u	-0.3%	x	x	-1.0%	-21.7%	-11.8%	-9.8%[14.2 µM]
COc1ccccc1NC(=O)CSc1ncnc2c1oc1ccccc12	24.8%	-5.2%	3.7%	-0.8%	1.4%	-1.5%	9.3%	-27.1%
O=C(OCC(=O)N(C1CCCCC1)C1CCCCC1)c1cnccn1	-11.1%	-9.7%	5.7%	-0.4%	-8.1%	2.2%	-1.8%	3.4%
CC(C)(C)c1cc[n+](-c2nc([O-])sc2C=O)cc1	3.3%	-0.6%	3.8%	-7.7%	5.1%	-12.3%	15.3%	-5.8%[46.1 µM]
CCOc1ccc(C(=O)NC(C(=O)NCc2ccccn2)C(C)C)cc1 (stereo not given)	-7.0%	1.0%	-1.3%	-2.4%	-8.2%	-8.4%	10.9%	19.0%
CCOC(=O)c1c(S(=O)(=O)N2CCN(c3ccccc3OC)CC2)c(C)n(C)c1C	-8.2%	x	10.4%	-1.8%	x	x	-6.3%[46.1 µM]	x
CCOc1ccc(S(=O)(=O)NCc2ccc(F)cc2)c2cccnc12	71.4%[activator]	-1.9%	-7.1%	0.9%	-6.6%	20.6%	1.8%	-11.1%[46.1 µM]
CC(Sc1nnnn1C1CC1)C(=O)Nc1cccc(S(=O)(=O)N2CCOCC2)c1 (stereo not given)	18.5%	1.3%	x	x	x	-11.5%	-7.2%	24.0%
Cc1ccc(Cl)cc1N1CCN(C(c2ccc(C#N)cc2)c2nnnn2C2CCCC2)CC1 (stereo not given)	-4.0%	-4.6%	20µM*	1.9%	1.2%	12.8%	-18.4%	5.8µM*

Whole records as entered above.
`N#Cc1ccccc1OCC(=O)OCC(=O)N1CCCC1` is entered as 2A StopGo = -5.6%; SARS PLpro yeast = -16.4%; Cruzain inh noDet = x; Cruzain Triton = x; NS1 inh = x; RE007 growth inh = 6.6%; LASV entry inh = -5.8%[46.1 µM]; MARV entry inh = -3.4%[46.1 µM]
`CCOc1ccc(S(=O)(=O)NCc2ccc(F)cc2)c2cccnc12` is entered as 2A StopGo = 71.4%[activator]; SARS PLpro yeast = -1.9%; Cruzain inh noDet = -7.1%; Cruzain Triton = 0.9%; NS1 inh = -6.6%; RE007 growth inh = 20.6%; LASV entry inh = 1.8%; MARV entry inh = -11.1%[46.1 µM]

A stretch from further up, as a working copy:
mol	2A StopGo	SARS PLpro yeast	Cruzain inh noDet	Cruzain Triton	NS1 inh	RE007 growth inh	LASV entry inh	MARV entry inh
O=C(Nc1ccccc1)Nc1ccc(Cl)c([N+](=O)[O-])c1	-5.1%	-95.8%	-14.8%	-10.8%	-70.6%	18.5%	u	u
Cc1cccc(C)c1OCc1cc(C(=O)N(Cc2nccn2C)C(C)C)no1	-21.7%	0.4%	x	x	-12.7%	-6.1%	u	0.8%

The list continues:
mol	2A StopGo	SARS PLpro yeast	Cruzain inh noDet	Cruzain Triton	NS1 inh	RE007 growth inh	LASV entry inh	MARV entry inh
Cc1ccc(CNC(=O)C2CC=CCC2C(=O)O)cc1 (stereo not given)	-3.9%	-0.7%	x	x	-3.8%	2.7%	x	x
CN(C(=O)COC(=O)/C=C/c1ccc(S(=O)(=O)N2CCc3ccccc32)cc1)C1CCS(=O)(=O)C1 (stereo not given)	-13.2%	0.3%	x	x	-0.9%	0.6%	u	20.4%[46.1 µM]
CCOc1cc2[nH]c(=S)n(Cc3ccc(C(=O)NCCOC)cc3)c(=O)c2cc1OCC	-11.8%	-0.8%[6.58 µM]	26.9%	-0.5%	-0.9%	-23.2%	u	26.7%
C/C(=N\NC(=O)Cc1c(C)[nH][nH]c1=O)c1cccc(Br)c1	-14.5%	1.4%	x	x	4.4%	-2.1%	x	x
COc1ccc(/C=N/Nc2nncn2N)cc1Br	27.8%	-17.9%	x	x	-89.9%	u	u	u
COc1cc2c(C(=O)NCc3ccc4c(c3)OCO4)cn(C)c(=O)c2cc1OC	-2.3%	4.5%	u	1.7%	-6.7%	-4.0%	0.0%	1.7%
CCCCC1=CC2=CC(=O)C(C)(OC(=O)CC)C(=O)C2=CN1C(CO)CO (stereo not given)	-17.5%	1.1%	x	x	-1.3%	4.1%	x	x
CCOC(=O)c1cc2c(=O)n3ccccc3nc2n(C(C)C)c1=NC(=O)c1cc2ccccc2o1	15.4%	x	u	5.6%	x	x	5.8%[46.1 µM]	0.4%[46.1 µM]
COc1ccc(C(CC(=O)Nc2ccc(Br)cn2)N2Cc3ccccc3C2=O)cc1 (stereo not given)	3.8%	x	7.9%	-5.5%	x	x	-14.0%[46.1 µM]	x
CC(C(=O)N1CCN(c2ccccc2)CC1)N1C(=O)C2CC=CCC2C1=O (stereo not given)	7.3%	14.7%	11.2%	4.5%	6.0%	15.3%	1.7%	8.9%
COC(=O)c1cc(NC(=O)Cn2nc(-c3ccc(C)c(C)c3)ccc2=O)cc(C(=O)OC)c1	-11.9%	x	1.8%	0.4%	x	x	-12.4%[46.1 µM]	-17.8%[46.1 µM]
Cc1nn(Cc2ccccc2Cl)c2sc(C(=O)NC(C)(C)C)cc12	-19.4%	-1.4%	16.2%	-6.4%	2.0%	11.9%	u	u
Cn1ncc2c(=O)[nH]cnc21	-8.0%	0.4%	x	x	x	-2.7%	1.0%[46.1 µM]	-3.1%[46.1 µM]
CCOC(=O)C(=O)N1CCC(C(=O)OC)CC1	-1.4%	0.2%	x	x	0.0%	0.8%	-0.5%[46.1 µM]	7.7%[46.1 µM]
Cc1ccccc1N1CCN(S(=O)(=O)C[C@]23CCC(CC2NC(=O)[C@@H](N)CCS(C)(=O)=O)C3(C)C)CC1 (stereo not given in full)	-9.8%	x	9.4%	-2.0%	-18.8%	-2.7%[18.4 µM]	x	u
Cc1cc(=O)oc2cc(OCC(=O)NC3CC(C)(C)NC(C)(C)C3)c(Cl)cc12	-22.1%	-2.1%	x	x	-7.0%	-17.3%	x	x
COCCCNC(=S)N(Cc1ccccc1)Cc1ccc(F)cc1	-3.5%	12.9%	x	x	1.5%	9.1%	10.6%[46.1 µM]	-19.3%[46.1 µM]
CCCCOC(=O)Nc1nnc(CC)s1	x	7.1%	2.3%	-2.9%	0.4%	6.4%	u	u
CN(C)c1cccc(N(C)C)c1CNC(=O)C(C)(C)C	32.6%[activator]	0.8%	x	x	-0.4%	6.4%	26.2%[46.1 µM]	-9.1%[46.1 µM]
COc1ccc2cc(CCNC(=O)C(C)(C)C)c(=O)[nH]c2c1	13.7%	7.8%	-3.8%	-2.3%	3.0%	1.8%	-2.2%	6.5%
CCC1CCCCN1C(=O)COc1ccc(N(C)S(=O)(=O)c2ccc(C)cc2)cc1 (stereo not given)	u	-7.9%	x	x	-31.6%	13.1%	x	x
CCCCc1ccc(NC(=S)N2CCCC2)cc1	19.8%	-1.5%	x	x	-57.1%	-32.2%	21.0%[46.1 µM]	14.9%[46.1 µM]
Cc1ccc2oc(=O)c(/C=C(\O)c3ccco3)nc2c1	0.6%	-0.9%	x	x	-0.3%	-8.7%	10.9%	-2.4%[14.2 µM]
NC(=O)c1ccc(NC(=O)CSc2cn(CC(=O)N3CCOCC3)c3ccccc23)cc1	9.3%	-3.8%	x	x	0.8%	3.6%	x	x
CCCOc1ccccc1C(=O)N(Cc1ccc(C)o1)C1CCS(=O)(=O)C1 (stereo not given)	-4.2%	-10.1%	x	x	-3.4%	-7.6%	x	x
NC(=O)c1ccccc1NC(=O)CCCCCn1nnc2ccccc2c1=O	0.0%	1.8%	x	x	2.3%	4.1%	x	x
CC(=O)c1c(C(C)=O)c(C)n(Cc2ccc3c(c2)OCO3)c1C	u	-1.1%	4.2%	1.2%	-7.4%	-16.7%	0.2%	-20.7%
COC(=O)c1c(SCC(=O)Nc2cc(F)ccc2F)[nH]c2ccc(C)cc2c1=O	-14.4%	x	-5.7%	-1.7%	x	x	u	x
Cc1ccc(N(Cc2ccccc2)C(=O)CN2C(=O)NC3(CCCC3)C2=O)cc1	19.1%	5.9%	x	x	1.2%	-3.4%	x	x
COc1ccccc1NC(=O)N1CCN(c2ccc3nncn3n2)CC1	-27.6%	-2.9%	x	x	2.3%	-3.5%	x	x
CC(C)C(=O)Nc1ccc(C(=O)NNC(=O)CCCOc2ccc(Cl)cc2Cl)cc1	16.3%	-4.8%	u	5.5%	0.5%	21.7%	1.7%	9.2%
O=C(O)c1ccc2c(c1)C1C(Cl)C(Sc3ccccc3[N+](=O)[O-])CC1C(c1cccc([N+](=O)[O-])c1)N2 (stereo not given)	-21.3%	0.0%	x	x	x	-11.1%	-4.1%	-5.5%[46.1 µM]
